# High-throughput results deposited in PubChem BioAssay by National Center for Advancing Translational Sciences (NCATS).
# Sfp PPTase inh: qHTS Assay for Inhibitors of Bacillus subtilis Sfp phosphopantetheinyl transferase (PPTase). 4'-phosphopantetheinyl transferase ffp (Bacillus subtilis), Q9F4F7. Biochemical Sfp PPTase activity, qHTS. Potency, µM, without a hit: max response, negative = inhibition, most hits filed as inhibitors. 3.5% of 310,000 active. AID 1490, 2009; active means well fitted inhibition curve with a large enough effect; inconclusive means small, poorly fitted or top-dose-only effect, or another doubt; inactive means no such curve, though single readings can be large or run the other way;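 further: the enzyme is Sfp with the accession as filed and its product quenches rhodamine fluorescence; potency means the concentration at half of the fitted maximal effect; 0% = enzyme reaction without inhibitor and -100% = no enzyme wells; top concentration of the series not given in the record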
#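 Step 1, compound plus 15 nM Sfp-PPTase, 15 min, room temperature. Step 2, add rhodamine-CoA (5 uM) and BHQ-2-YbbR (12.5 uM). Step 3, read 525/598 nm fluorescence at 0 and 30 min.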
# Menin MLL FP FL: qHTS Assay for Inhibitors Targeting the Menin-MLL Interaction in MLL Related Leukemias: Competition With Fluorescein Labeled MLL-derived Peptide | 290,000 tested, under 10 active | AID 1766, 2009 | FP activity change, % at 61.4 µM | Fluorescence polarization, fluorescein-MLL peptide displacement from menin; inconclusive = falling polarisation curve, or a change in total fluorescence; inactive = total fluorescence flat and polarisation flat or rising; no compound was filed as active; the % refers to the polarisation; negative = inhibition;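 further: % of control where 0% means no effect; inhibitors lower the polarisation; unlabelled MLL peptide was the positive control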
# TRPML1 blocker: qHTS for Inhibitors of the Human Mucolipin Transient Receptor Potential 1 (TRPML1). Mucolipin-1 (Homo sapiens), Q9GZU1. TRPML1-inducible cells, Ca2+ dye fluorescence, FDSS; hits give low values; inhibition of EC80 agonist-evoked calcium signal. activity change, negative = inhibition, % (test concentration not listed). 0.02% of 390,000 active; in the data active means activity change below about -50%; inconclusive means about -30% to -50%; inactive means above about -30%;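 further: stimulus is agonist 54-4 at its EC80 concentration; on the % scale 0 is the no-effect control and ±100 the full control effect; compound concentration not given in the record; the text of the record puts the active cut at -80%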
#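 Tet-induced TRPML1-DL cells loaded with Ca8 no-wash calcium dye were read kinetically on FDSS. Compound addition was followed by EC80 agonist 54-4 (4 uM final); inhibition was read over 110 s.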
# ClpP mod: qHTS Assay for Activators of ClpP | ATP-dependent Clp protease proteolytic subunit (Bacillus subtilis (strain 168)), P80244 | 1.9% of 340,000 active | purified B. subtilis ClpP, FRET peptide cleavage, 20 min | Potency, µM (doses to about 57.5 µM), inactives show at the top dose activity change, negative = active | AID 651965, 2013; active = well fitted falling curve with a large enough effect; inconclusive = small, poorly fitted or top-dose-only effect; inactive = no such curve, though single readings can be large or run the other way; further: potency means the concentration at half of the fitted maximal effect; the source files actives as falling curves though it sought activators and does not explain the sign; nearly all actives have a fitted effect of over 65% in size; many hits overshoot -100%
# Target sequence (P80244 whole entry, looked up): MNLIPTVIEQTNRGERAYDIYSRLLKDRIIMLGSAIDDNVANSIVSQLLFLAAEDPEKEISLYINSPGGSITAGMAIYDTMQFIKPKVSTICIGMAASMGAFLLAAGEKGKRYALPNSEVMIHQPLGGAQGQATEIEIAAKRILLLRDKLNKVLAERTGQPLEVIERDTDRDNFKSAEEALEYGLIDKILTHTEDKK
#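 Buffer: 100 mM Tris/HCl pH8, 100 mM KCl, 0.05% low protease BSA, 2.5% glycerol, 0.01% Tween-20. ClpP 10 microg/mL final; 20 min RT; delta FRET normalized to ADEP and DMSO controls.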
# PINK1 modulator: A Quantitative High throughput Screen to Identify Chemical Modulators of PINK1 Expression | PINK1 immunofluorescence, high-content cytometry, 24 h | 0.2% of 410,000 active | Potency, µM (series often up to 76.6 µM), for inactives: top-dose activation (PINK1 increase), actives largely listed as activators; active = well fitted activation curve with a large enough effect; inconclusive = small, poorly fitted or top-dose-only effect; inactive = flat fitted curve, though single readings scatter; cell line not stated here;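 further: potency means the concentration at half of the fitted maximal effect; % of control where 0% means no effect; nearly all actives have a fitted effect of over 65% in size; a mitochondrial uncoupler was the plate control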
#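 Decision-based qHTS: stable cells, 24 h exposure to five compound concentrations, CCCP as control. Fixed cells stained for PINK1 plus nuclear, mitochondrial and cell markers, cytometer read.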
# TRPML1 ag: qHTS for Agonists of the Human Mucolipin Transient Receptor Potential 1 (TRPML1). TRPML1-expressing cells, Ca2+ dye fluorescence, FDSS; host cell line not named in the record; reference of the full effect not given here. activation, % (concentration not given with the values). 0.12% of 410,000 active; in the data active = activation above about 50%; inconclusive = about 30% to 50%; inactive = below about 30%; further: 0% is about no effect; the text of the record puts the active cut at 80%
#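 In this qHTS format, compounds were pin-transferred onto Ca8-dye-loaded TRPML1-DL cells induced with Tet overnight, and intracellular Ca2+ fluorescence was recorded kinetically for 110 s after a 10 s baseline. A subsequent 4uM final 54-4 (EC80) addition followed by a second 110 s read served as the antagonist phase.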
# TRPV1 PAM: HTS Assay for Compounds that Act as Potentiators of the Vanilloid Receptor 1. TRPV1-expressing cells, Fluo-8 calcium influx, capsaicin EC20 potentiation; host cell line not named in the record; control for the full effect not named in the record. Transient receptor potential cation channel subfamily V member 1 (Homo sapiens), Q8NER1. 0.02% of 320,000 active. potentiation, % at 8.33 µM; active means potentiation above 80%; inconclusive means 30% to 80%; inactive means below 30%; further: 0% is about no effect
# Target sequence (Q8NER1 whole entry, looked up): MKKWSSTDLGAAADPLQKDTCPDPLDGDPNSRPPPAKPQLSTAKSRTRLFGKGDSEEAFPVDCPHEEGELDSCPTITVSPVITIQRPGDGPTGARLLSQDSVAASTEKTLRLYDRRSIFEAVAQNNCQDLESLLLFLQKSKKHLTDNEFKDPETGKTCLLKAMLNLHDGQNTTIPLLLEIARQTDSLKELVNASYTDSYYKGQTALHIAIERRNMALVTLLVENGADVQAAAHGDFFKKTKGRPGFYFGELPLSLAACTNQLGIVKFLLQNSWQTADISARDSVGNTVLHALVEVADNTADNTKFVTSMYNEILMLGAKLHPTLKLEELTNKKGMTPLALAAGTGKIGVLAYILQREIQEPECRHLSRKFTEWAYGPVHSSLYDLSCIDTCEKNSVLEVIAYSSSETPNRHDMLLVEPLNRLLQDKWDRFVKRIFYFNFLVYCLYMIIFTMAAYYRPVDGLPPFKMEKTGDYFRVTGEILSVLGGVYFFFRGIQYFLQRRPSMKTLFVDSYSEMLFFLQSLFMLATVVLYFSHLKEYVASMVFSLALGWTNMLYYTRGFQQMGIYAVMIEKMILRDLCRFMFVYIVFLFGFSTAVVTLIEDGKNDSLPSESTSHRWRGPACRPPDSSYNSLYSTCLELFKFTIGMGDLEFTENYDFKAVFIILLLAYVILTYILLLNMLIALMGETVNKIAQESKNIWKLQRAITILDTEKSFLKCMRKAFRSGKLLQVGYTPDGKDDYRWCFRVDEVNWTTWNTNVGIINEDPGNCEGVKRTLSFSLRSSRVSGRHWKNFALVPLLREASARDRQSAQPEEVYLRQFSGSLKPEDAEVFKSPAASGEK
#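 Cells expressing TRPV1 were dye-loaded with Fluo-8 and read kinetically: 10 s baseline, 3 min after compound (agonist portion), then 2 min after EC20 capsaicin (allosteric enhancer portion). Calcium-bound dye fluorescence at 480/520 nm.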
# Starred values were filed as active, the others as inactive; ? = inconclusive; . = no result given; [ ] = remark or other dose.
SMILES,Sfp PPTase inh,Menin MLL FP FL,TRPML1 blocker,ClpP mod,PINK1 modulator,TRPML1 ag,TRPV1 PAM
Cc1ccc([C@@H]2CC(=O)[C@@H]3CN(S(=O)(=O)c4ccc(C)cc4)[C@H](c4cccc(Cl)c4)C[C@@H]3N2S(=O)(=O)c2ccc(Cl)cc2)cc1,.,.,-17,-0.6%,0.9%,8.9,.
CCOC(=O)c1c(C)n(C)c2ccc(OC)c(NS(=O)(=O)c3ccc(Cl)s3)c12,-8%,4.2,9,1.4%,0.5%,0.3,-3
CN(C(=O)c1ccc(OCC=C(c2ccccc2)c2ccccc2)cc1)c1ccccc1I,-7%,0.7,20,.,.,2.0,.
CCOc1ccc(N2C(=O)/C(=C\c3ccc(O)c(OC)c3)S(=O)(=O)C2c2cccc([N+](=O)[O-])c2)cc1 (stereo not given),4%,12,5,1.9%,1.7%,0.5,-28
Cc1ccccc1Cn1c(NC2CCCC2)nc2c1c(=O)[nH]c(=O)n2C,6%,0.0,-2,-2.7%,1.1%,1.2,16
S=c1[nH]nc(C2CCCCC2)n1/N=C/C(Cl)=C\c1ccccc1,3%,-1.4,4,-1.9%,2.6%,2.4,6
Cc1nn(-c2ccccc2)c(N)c1C(c1ccc(C(C)C)cc1)c1c(C)nn(-c2ccccc2)c1N,4%,5.8,18,3.0%,1.3%,-1.4,-8
CCn1c2ccccc2c2cc(N=C3SC(CC(=O)Nc4ccccc4)C(=O)N3C)ccc21 (stereo not given),6%,8.5,-4,1.2%,9.2%,-0.4,.
Clc1nssc1=Nc1ccc(Br)cc1,10µM*,-5.5,-2,0.1%,?,0.3,-16
COc1c(C)cccc1C(=O)Nc1ccc(CN2CCCCC2)cc1,-18%,3.2,5,0.0%,.,0.1,-5
CCN(CC)C(=O)Cn1c(=O)cc(C)c2c(C)nn(-c3ccc(C)cc3)c21,.,.,-4,-6.1%,-0.4%,0.6,.
COc1ccc(NC(=O)CC2C(=O)N(c3ccc(Cl)cc3)C(=S)N2CCc2ccccn2)cc1 (stereo not given),1%,4.4,-5,-4.4%,28µM*,-1.0,12
Cn1ccnc1SCC(=O)NCC(=O)Nc1ccc(F)c(F)c1F,.,.,-1,-2.2%,-0.5%,-0.3,.
COc1ccc(O)c(/C=N/NC(=O)c2cc(=O)[nH]c3ccccc23)c1,11%,4.7,-6,1.3%,-0.1%,-0.4,1
CC(C)(C)NC(=O)C(c1ccco1)N(C(=O)c1ccc(CN2CCOCC2)o1)c1ccccc1 (stereo not given),12%,2.8,5,3.8%,0.2%,0.6,-1
CCCCOc1ccccc1C(=O)Nc1nonc1-c1ccccc1,.,.,7,-8.9%,2.1%,2.0,.
Cc1scc(C(=O)N/N=C/c2ccc(OCC(C)C)cc2)c1C,14%,2.6,-3,-0.7%,0.2%,0.4,-4
CCO[C@@H]1OC(C(=O)N2CCN(Cc3ccccc3)CC2)=C[C@H](c2ccc(C(F)(F)F)cc2)[C@H]1CCCO,-4%,-1.5,-3,-0.3%,2.8%,1.8,-26
CCCCCn1c2c(c(=N)c3ccccc31)CCC2,?,-3.5,-10,.,4.1%,-0.2,17
O=S(=O)(c1cccc(-c2n[nH]c(=S)n2-c2cccc(C(F)(F)F)c2)c1)N1CCOCC1,.,.,19,0.6%,-0.5%,-0.2,.
COc1ccc(C(=O)NCC(c2ccco2)N2CCc3ccccc3C2)cc1 (stereo not given),.,.,12,4.7%,0.1%,12,4
COc1cccc(N2CCN(C(=O)c3cccc(-n4c(C)nc5cccnc54)c3)CC2)c1,.,.,8,2.0%,0.7%,1.8,.
O=C(CN1CCN(CC(=O)Nc2ccccc2F)CC1)Nc1cccc(F)c1,4%,-1.4,?,.,12%,2.2,-3
COc1ccc(CCNC(=O)CCn2c(=O)c3ccccc3n(CC(=O)Nc3ccccc3F)c2=O)cc1OC,.,.,-2,?,-0.8%,2.4,.
O=C(CN1C(=O)COc2ccc(S(=O)(=O)N3CCCC3)cc21)N1CCN(c2ccccc2)CC1,.,.,5,-2.1%,1.5%,0.7,.
Cc1cc(NC(=NC2CC2)c2ccccc2)n(-c2ccccc2)n1,11%,0.7,-12,.,1.1%,0.0,11
COc1ccc(Br)cc1CNCC1CCCO1 (stereo not given),0%,-3.2,21,-0.7%,0.0%,0.4,-2
CCOc1ccc(C(=S)N2CCN(C)CC2)cc1,14µM*,-11,28,.,-0.6%,1.4,-2
O=C(NCc1cccnc1)c1ccc(Br)s1,15%,-1.0,-11,-2.1%,0.8%,0.7,-6
OC(COCC(F)(F)C(F)(F)C(F)(F)C(F)F)Cn1c2ccc(Cl)cc2c2cc(Cl)ccc21 (stereo not given),35%[activator],-1.4,-14,-6.3%,-1.7%,0.2,-24
O=C(CSc1nc2c([nH]c3ccccc32)c(=O)n1-c1ccccc1F)Nc1ccccc1C(F)(F)F,.,.,-14,-11%,1.6%,1.2,.
Cc1cc(C(=O)Nc2ccc(C#N)cc2)on1,14%,6.1,19,0.6%,2.7%,1.8,-14
Cn1c2ccccc2c2c(C(=O)O)cn(C3CCCC3)c(=O)c21,-5%,2.2,4,3.9%,0.0%,-0.7,-9
CSc1nc(C)cc(Oc2ccc(=O)n(C)n2)n1,16%,6.2,2,-0.7%,-2.3%,-1.0,-3
COc1ccc(C(=O)N2CCN(c3ccccc3OC)CC2)cc1,7%,0.4,5,-0.5%,1.1%,0.2,-6
COc1cccc(-c2ccc(SCC(=O)NC3CCCC3)nn2)c1,10%,.,5,0.8%,-3.9%,2.5,19
Cc1c(C(Nc2ccccn2)c2ccccc2)c(=O)n(-c2ccccc2)n1C (stereo not given),2%,1.3,-17,-3.2%,1.7%,1.8,3
CCOc1ccc(NC(=O)CN(C)C(=O)c2c(C)nn(-c3ccccc3)c2Cl)cc1OCC,.,.,-10,-18%,0.9%,0.2,1
Cc1cc(C(=O)COC(=O)Cc2ccc(Cl)cc2)c(C)n1C,.,.,22,-4.5%,1.3%,1.0,.
COc1ccc(N(CC(=O)NCCSc2ccccn2)S(=O)(=O)c2ccccc2)c(OC)c1,12%,-0.3,2,.,0.3%,1.2,0

# Not a retest: entries from further up.
SMILES,Sfp PPTase inh,Menin MLL FP FL,TRPML1 blocker,ClpP mod,PINK1 modulator,TRPML1 ag,TRPV1 PAM
Cc1cc(C(=O)COC(=O)Cc2ccc(Cl)cc2)c(C)n1C,.,.,22,-4.5%,1.3%,1.0,.
COc1ccc(N(CC(=O)NCCSc2ccccn2)S(=O)(=O)c2ccccc2)c(OC)c1,12%,-0.3,2,.,0.3%,1.2,0

# Further records follow.
SMILES,Sfp PPTase inh,Menin MLL FP FL,TRPML1 blocker,ClpP mod,PINK1 modulator,TRPML1 ag,TRPV1 PAM
CCOC(=O)C1CC(CN2C(=O)c3ccccc3C2=O)OC1=O (stereo not given),.,.,-27,.,5.4%,1.4,.
Nc1ncc(-c2ccccc2)c(-c2ccc(O)cc2O)n1,-12%,-8.3,9,.,-1.2%,1.0,-4
CCCCNC(=O)C1COc2ccccc2O1 (stereo not given),7%,-1.6,-3,-2.1%,-2.6%[38.3 µM],0.0,1
Cc1noc(C)c1NC(=O)Nc1cccc2c1O[C@H](CN(C)S(=O)(=O)c1cn(C)cn1)[C@@H](C)CN([C@H](C)CO)C2=O,.,.,1,-2.6%,0.2%,-0.4,.
CC(C)(C)C(=O)N1CCN(c2ncnc3scc(-c4ccccc4)c23)CC1,-3%,0.7,-18,0.0%,1.2%,9.0,?
CCCCC(=O)Nc1nnc(SCc2cc(=O)n3cc(C)ccc3n2)s1,.,.,28,-2.1%,0.9%,1.0,.
CC1CC(C)CN(S(=O)(=O)c2ccc(F)c(C(=O)NC3CCCCC3C)c2)C1 (stereo not given),.,.,3,0.7%,2.2%,-0.2,.
CCOc1ccc(-n2c(=O)c3c4c(sc3n(CC(=O)Nc3cccc(C(F)(F)F)c3)c2=O)CCCCC4)cc1,.,.,60,-1.8%,0.1%,0.1,.
CCc1nc(CN2CCCC(C(=O)c3ccc4c5c(cccc35)CC4)C2)c(C)[nH]1 (stereo not given),-4%,-0.2,-6,.,3.1%,-0.2,-4
CC1CCN(C(=O)Cn2c(-c3cccs3)cc3cc(Cl)ccc32)CC1,.,.,3,35µM*,-1.2%,0.7,.
COc1ccc(N(CC(=O)NC2CCCC2)C(=O)Cn2nnc(-c3ccc(C)cc3)n2)cc1,0%,-0.3,-5,-0.1%,-1.1%[38.3 µM],3.8,16
CC(=O)c1ccc(Oc2ncnc3sccc23)cc1,-2%,4.8,-9,-1.7%,-2.3%,-1.4,-10
CCCCN1C(Nc2ccccc2)=NC[C@@H]1Cc1ccccc1,.,.,77,1.8%,0.8%,-0.1,1
CCOc1ccccc1N(C(=O)c1snc(C(N)=O)c1N)C(C(=O)NC1CCCC1)c1ccco1 (stereo not given),-21%,-0.9,18,-15%,2.2%,0.5,3
Cc1ccccc1NC(=O)c1ccc2c(c1)C(=O)N(CC(C)C)C2=O,14%,-0.4,14,.,3.2%,-0.8,-4
O=C(COC(=O)C1CCC1)NCc1ccc(Cl)cc1Cl,.,.,-8,-1.1%,-0.4%,0.2,2
CN(C)CCN1C(=O)C(=O)/C(=C(/O)c2ccc3c(c2)OCCO3)C1c1ccccn1 (stereo not given),?,1.3,-2,0.9%,-1.4%,-0.2,3
OCCC1CN(Cc2nc(-c3ccc(F)cc3)cs2)CCN1CCc1ccccc1 (stereo not given),-5%,-1.4,-6,-2.9%,1.0%,2.0,-10
COc1ccc(-c2csc(NC(=O)c3ccccc3F)c2C(=O)O)cc1,9%,-1.4,9,-5.6%,-0.3%,3.8,-11
O=C(Nc1ccc(Br)cc1)c1ccc(F)c(S(=O)(=O)NCc2cccs2)c1,32%,-0.3,17,-0.7%,?,2.3,-5
COC(=O)c1ccc(CNC(=O)Cn2cnnn2)cc1,18%,-0.4,9,0.1%,2.5%,-0.3,-1
Cc1ccnc(SCc2ccc([N+](=O)[O-])cc2)n1,16%,2.1,12,.,-0.8%,-0.1,3
